From PubChem
Mtb growth = Mycobacterium tuberculosis H37Rv growth inhibition, putative kinase inhibitor library, confirmatory dose response (AID 2842); inhibition, % at 10 µg/mL, or IC90 in µg/mL where a hit was titrated; M. tuberculosis H37Rv growth inhibition; higher % means a stronger effect; some inactives read as strong as hits; hit rate 5.2% among 24,000;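 active means confirmed in a dose series; inconclusive means mostly over 85% at the one dose but not retested; inactive means below 85% or not confirmed; about a fifth of its hits are not listed in these tables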;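 further: bacteria incubated one week before Alamar blue readout; 0% = bacteria only wells and 100% = bacteria with high antibiotic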
* = called active by the depositor; ? = inconclusive. The list is partial (hit frequency here may not be typical).

SMILES	Mtb growth
CNc1nc2c(c(=O)n(C)c(=O)n2C)n1CC(O)COc1ccccc1C (stereo not drawn)	-5.1%
O=C(/C=C/c1cccs1)N(CCCn1ccnc1)c1nc2ccccc2s1	1.43µg/mL*
COC(=O)c1c(NC(=O)CC2Sc3ccccc3NC2=O)sc2c1CCCC2 (stereo not drawn)	38.2%
CCOC(=O)N1CCN(C(c2cccs2)c2sc3ncnn3c2O)CC1 (stereo not drawn)	9.2%
Cc1cccc(N2CC(C)Cn3c2nc2c3c(=O)n(CC(=O)O)c(=O)n2C)c1 (stereo not drawn)	-18.0%
CCCCOc1ccc(C(=O)Nc2nnc(-c3ccc(Br)cc3)s2)cc1	0.5%
Cc1cccc(NC(=O)CSc2nnc(-c3ccco3)n2-n2cccc2)c1C	9.4%
COc1cccc(NC(=O)c2oc3ccccc3c2NC(=O)/C=C\c2ccccc2)c1	34.6%
Nc1cc(=O)[nH]c(=O)n1-c1ccccc1	-3.7%
COc1ccc(-n2c(=O)[nH]c3c(C(N)=O)nc(-c4cccc(F)c4)nc32)c(OC)c1	-25.0%
CS(=O)(=O)c1ccccc1C(=O)N(Cc1ccccn1)c1nc2ccc(Cl)cc2s1	7.6%
CCOc1ccc(-c2nnc3ccc(SCC(=O)N4CCCCCC4)nn23)cc1	-5.2%
Cc1ccc(NC(=O)CSc2nccn(-c3cccc(F)c3)c2=O)c(C)c1	-5.1%
COC(=O)c1sccc1S(=O)(=O)Nc1ccc(OC)c(OC)c1	-5.4%
CCOC(=O)c1nn(-c2ccc(OC)cc2)c(=O)c2c(NC(=O)c3cc4ccccc4oc3=O)scc12	-0.7%
COc1ccc(-c2nc(SCC(=O)Nc3ccc(C(F)(F)F)cc3)c3c(=O)n(C)c(=O)n(C)c3n2)cc1	3.5%
O=C(Oc1c(CN2CCOCC2)cc(Cl)c2cccnc12)c1cccc([N+](=O)[O-])c1	61.5%
Oc1ccccc1Nc1nc(N2CCOCC2)c2ccccc2n1	-4.2%
COc1ccc(N2C(=O)NC3CC2(C)Oc2ccc([N+](=O)[O-])cc23)cc1 (stereo not drawn)	-8.5%
CCn1c2c(c(=O)[nH]c1=O)C(c1ccncc1)C1=C(CC(C)(C)CC1=O)N2 (stereo not drawn)	-6.5%
CCOC(=O)c1oc2ccccc2c1NC(=O)COc1ccc(Cl)cc1	8.3%
Cc1ccc2cc(CCNC(=O)Cc3cccc4ccccc34)c(=O)[nH]c2c1C	0.6%
C#CCn1c(=NC(=O)CSCC(=O)Nc2nccs2)sc2ccccc21	1.0%
CCOC(=O)c1nn(-c2ccc(C(F)(F)F)cc2)c(=O)c2c(NC(=O)c3ccc(C)cc3)scc12	0.3%
CCc1ccccc1Nc1ncnc(N)c1[N+](=O)[O-]	6.3%
CS(=O)(=O)c1cccc(C(=O)N(Cc2ccccn2)c2nc3ccc([N+](=O)[O-])cc3s2)c1	10.2%
Cc1ccnc(SCCn2c(N3CCN(Cc4ccccc4)CC3)nc3c2c(=O)[nH]c(=O)n3C)n1	13.2%
NC(=O)c1oc2ccccc2c1NC(=O)/C=C/c1ccccc1	-3.2%
Cc1oc2c(O)c(O)ccc2c(=O)c1-c1ccccc1	-10.7%
COc1ccc2cc(CCNC(=O)Cc3cccs3)c(=O)[nH]c2c1	-19.1%
O=C(Oc1coc(CSc2ncccn2)cc1=O)c1ccc2ccccc2c1	-2.2%
Cc1ccc2cc(CCNC(=O)c3ccc(C(F)(F)F)cc3)c(=O)[nH]c2c1	-2.8%
NC(=O)Cn1cnc2ccccc21	-8.2%
COc1cc(C(=O)NCCc2cc3c(OC)ccc(OC)c3[nH]c2=O)cc(OC)c1OC	2.1%
O=c1ccn2c(SCc3ccc(C(F)(F)F)cc3)nnc2[nH]1	-6.7%
Nn1c(SCc2c(F)cccc2Cl)nncc1=O	5.0%
CCc1nc(SCC(=O)NCc2ccccc2)c2c(=O)n(C)c(=O)n(C)c2n1	0.0%
Cc1ccc(C)c(CN2CCN(c3nc4c(c(=O)[nH]c(=O)n4C)n3Cc3ccccc3F)CC2)c1	-6.3%
CCOC(=O)c1cc2c(=O)n3ccccc3nc2n(CCc2ccccc2)c1=NC(=O)c1cccs1	7.6%
COC(=O)c1ccsc1NC(=O)C1=COCCO1	-1.0%
Cc1c(C)n2c(SCC(=O)Nc3ccccc3)nnc2[nH]c1=O	-9.5%
NC(=O)c1c(NC(=O)c2cc3c(ccc4ccccc43)oc2=O)sc2c1CCN(Cc1ccccc1)C2	10.0%
Cc1c(C)n2c(SCC(=O)NCC3CCCO3)nnc2[nH]c1=O (stereo not drawn)	-9.5%
CCc1ccc(NC(=O)CSc2ccc3nnc(-c4ccc(F)cc4)n3n2)cc1	-5.0%
CCOC(=O)c1nn(-c2ccccc2)c(=O)c2c(NC(=O)C(CC)CC)scc12	-6.2%
Cc1ccccc1NC(=O)Cn1cnc2c(cnn2C(C)(C)C)c1=O	-0.5%
O=C(CSc1ncnc2c1nnn2Cc1ccc(F)cc1)Nc1ccc(F)cc1	6.7%
Cc1ccnc(SCc2cc(=O)c(OC(=O)Cc3ccc(Cl)cc3)co2)n1	-3.0%
O=C1NC(=Nc2cccnc2)S/C1=C/c1ccc(O)cc1	-7.1%
CCC(CO)NC(=O)Cc1cc(=O)[nH]c(=O)[nH]1 (stereo not drawn)	0.4%
Later entries.
SMILES	Mtb growth
CCOC(=O)c1nn(-c2ccccc2)c(=O)c2c(NC(=O)CCC3CCCC3)scc12	-7.2%
Cc1cccc(NC(=O)CSC2=NS(=O)(=O)c3ccccc3N2)c1	-8.6%
COc1ccc(/C=C(/C#N)c2nc(-c3ccc([N+](=O)[O-])cc3)cs2)c(OC)c1	-5.6%
Cc1ccc(Cc2nnc(SCC(=O)Nc3ccc(F)cc3)[nH]c2=O)cc1	-6.7%
COc1ccc(-n2nc3c(c2NC(=O)C2CCCC2)CS(=O)C3)cc1 (stereo not drawn)	-13.2%
COc1cc(OC)cc(C(=O)Nc2nnc(-c3ccc(Cl)cc3Cl)s2)c1	0.5%
COc1ccc(CNC(=O)NC2CC(=O)N(c3ccc4c(c3)OCCO4)C2)cc1 (stereo not drawn)	2.9%
COc1ccc(OC)c2sc(N3CCN(c4ccccc4)CC3)nc12	-0.9%
COc1cccc(N2CC(C(=O)Nc3c(C(=O)Nc4ccc5c(c4)OCCO5)oc4ccccc34)CC2=O)c1 (stereo not drawn)	1.9%
O=C(Nc1nc2ccc(Br)cc2s1)c1ccc(Cl)cc1	5.0%
COc1ccc2c(c1)c(=O)c(C(=O)c1ccc(Cl)cc1)cn2CC(=O)Nc1ccc(F)cc1	2.2%
O=C(OCn1nnc2ccccc2c1=O)c1cccnc1	80.3%
COc1ccc(NC(=O)CSC2=NC(C)(C)N=C2c2ccc(C)cc2)cc1	0.8%
Nc1nc(SCC(=O)Nc2cccc(Cl)c2)[nH]c(=O)c1NC(=O)c1ccc(C(F)(F)F)cc1	1.0%
NC(=O)CSc1n[nH]c(-c2ccccc2)n1	34.7%
NC(=O)C1CCN(c2cc(=O)n(-c3ccccc3Cl)c(=O)[nH]2)CC1	-6.9%
O=c1[nH]c(S)nc2sc3c(c12)CCCC3	0.1%
Cc1ccc(C(C)C)c(OCCCN2C(=O)C(=O)c3cc(C)ccc32)c1	?
Cc1sc2nc(SCC#N)[nH]c(=O)c2c1C	17.3µg/mL*
Cc1n[nH]c(=O)nc1N/N=C/c1cccc(OCc2ccccc2F)c1	80.4%
O=C(O)CSc1nnc(-c2ccco2)n1Cc1ccccc1	-0.7%
COC(=O)c1sccc1S(=O)(=O)Nc1ccc2c(c1)OCCO2	-5.9%
Cn1c(Cn2c(=O)sc3ccccc32)nnc1SCC(=O)Nc1ccc(F)cc1F	-6.8%
CCOC(=O)c1ccc(NC(=O)CSc2nc3c(c(=O)n2-c2ccc(C)cc2)SCC3)cc1	-4.4%
Cc1ccc2c(c1)C(c1ccccc1)N(C(=O)c1cc(Br)ccc1Cl)CC(=O)N2 (stereo not drawn)	78.7%
COc1ccc(CN2CC3=C(C2=O)C(c2ccccc2)NC(=O)N3)cc1 (stereo not drawn)	-17.9%
O=c1[nH]c2ccccc2nc1/C=C/c1ccc2c(c1)OCO2	-5.3%
COc1ccc(-n2ccnc(SCc3ccccc3C)c2=O)cc1OC	-5.6%
Cc1cc(O)c(Cl)cc1NS(=O)(=O)c1ccccc1	8.5%
O=C(CSc1c[nH]c2ccccc12)N1CCc2ccccc21	19.2%
CCN(c1ccccc1)S(=O)(=O)c1ccc2[nH]c(=O)cc(C)c2c1	2.0%
COc1cccc(N2CC(NC(=O)Nc3ccccc3F)CC2=O)c1 (stereo not drawn)	3.4%
O=C(CSC1=NS(=O)(=O)c2ccccc2N1)NC1CCCCC1	-2.5%
CS(=O)(=O)c1ccc2nc(Nc3nc4c(F)cccc4s3)sc2c1	67.9%
COc1ccccc1-c1nnc(Nc2nc3ccc(SC)cc3s2)o1	15.9µg/mL*
CCCCN(CCCC)S(=O)(=O)c1ccc(C(=O)Nc2sc3c(c2C#N)CCC3)cc1	-2.0%
N#CC1=C(S)N(c2ccccc2)C(c2ccc(-c3ccccc3[N+](=O)[O-])o2)NC1=O (stereo not drawn)	-14.6%
COc1ccc(CC(=O)N(C)c2nnc(C34CC5CC(CC(C5)C3)C4)s2)cc1	1.6%
NC(=O)c1nc(-c2cccc(Br)c2)nc2c1[nH]c(=O)n2-c1ccc(F)cc1	-5.4%
COc1ccc(C(=O)Nc2nnc(-c3cccc(C)c3)s2)cc1OC	3.5%
COc1cccc(Nc2nc(NCCCO)nc3c2cnn3C)c1	9.7%
Cc1cccc2sc(N(CCCn3ccnc3)C(=O)c3ccco3)nc12	0.83µg/mL*
O=C1CCc2cc(S(=O)(=O)NCCc3ccc(Cl)cc3)cc3c2N1CC3	6.2%
CCn1c(=NC(=O)CS(=O)(=O)c2ccccc2)sc2cc([N+](=O)[O-])ccc21	1.6%
CC(=O)N1CCCc2ccc(NC(=O)c3ccc([N+](=O)[O-])cc3)cc21	3.5%
Cc1nnc(NC(=O)CSc2nnc(NC(=O)CC(C)C)s2)s1	-6.0%
NC(=O)c1c(NC(=O)c2ccc(Br)s2)sc2c1CCCCC2	26.5%
COc1ccc(OCC(=O)N(C)C2CCS(=O)(=O)C2)cc1 (stereo not drawn)	-8.4%
COc1cc(/C=C(\C#N)c2nc(-c3ccccc3)cs2)cc([N+](=O)[O-])c1O	54.6µg/mL*
CC(=O)c1ccc(NC(=O)CSc2ncnc3c2cnn3-c2ccc(F)cc2)cc1	15.3%
Continued.
SMILES	Mtb growth
COc1ccc(C(=O)c2cn(Cc3ccccc3)c3cc4c(cc3c2=O)OCO4)cc1	55.1%
Cc1ccc(S(=O)(=O)CCCC(=O)Nc2ncnc3sccc23)cc1	9.8%
CC1(C)CC(=O)C2=C(C1)OC(N)=C(C#N)C2c1ccc(-c2ccccc2)o1 (stereo not drawn)	5.6%
O=C(Nc1ccc(Oc2ccccc2)cc1)c1cnc2n(c1=O)CCS2	0.9%
O=C(CSc1c[nH]c2ccccc12)Nc1ccc2c(c1)OCO2	54.7%
NC(=O)c1oc2ccccc2c1NC(=O)c1ccc(F)cc1	12.5%
O=C(Oc1ccc2ccc(=O)oc2c1)N1CCOCC1	13.3%
O=C(Nc1ccc(OC(F)(F)F)cc1)c1oc2ccccc2c1NC(=O)c1c(F)cccc1F	-0.8%
O=c1[nH]ncc(N/N=C\c2cccnc2)c1Br	-9.4%
Cc1ccc2nc(N(CCCn3ccnc3)C(=O)c3ccco3)sc2c1	0.48µg/mL*
CCOc1ccc(-n2cc(-c3ccc4c(c3)OCO4)[nH]c2=O)cc1	47.6%
O=C(c1ccco1)N1CCN=C1SCc1cccc(C(F)(F)F)c1	-9.3%
CC(=O)Nc1ccc(S(=O)(=O)Nc2ccc(O)c3ccccc23)cc1	-12.1%
CN(C)S(=O)(=O)c1ccc(C(=O)Nc2nc3c(cc4c5c(cccc53)CC4)s2)cc1	9.9%
COc1cccc(/C=N/NC(=O)c2[nH]nc3c2CCc2ccccc2-3)c1	?
COc1cccc(NC(=S)Nc2c(C)n(C)n(-c3ccccc3)c2=O)c1	-7.3%
CN(C(=O)C12CC3CC(CC(C3)C1)C2)c1nnc(C23CC4CC(CC(C4)C2)C3)s1	3.5%
COc1ccc(OC(C)C(=O)Nc2ccc(S(=O)(=O)Nc3onc(C)c3C)cc2)cc1 (stereo not drawn)	-1.4%
Cn1c(=O)[nH]c(=O)c2c1nc(N1CCN(c3ccccc3)CC1)n2CCSc1ccccc1	-9.6%

Reprinted from the entries so far, 17 compounds:
SMILES	Mtb growth
COc1ccc(C(=O)c2cn(Cc3ccccc3)c3cc4c(cc3c2=O)OCO4)cc1	55.1%
Cc1ccc(S(=O)(=O)CCCC(=O)Nc2ncnc3sccc23)cc1	9.8%
CC1(C)CC(=O)C2=C(C1)OC(N)=C(C#N)C2c1ccc(-c2ccccc2)o1 (stereo not drawn)	5.6%
O=C(Nc1ccc(Oc2ccccc2)cc1)c1cnc2n(c1=O)CCS2	0.9%
O=C(CSc1c[nH]c2ccccc12)Nc1ccc2c(c1)OCO2	54.7%
NC(=O)c1oc2ccccc2c1NC(=O)c1ccc(F)cc1	12.5%
O=C(Oc1ccc2ccc(=O)oc2c1)N1CCOCC1	13.3%
O=C(Nc1ccc(OC(F)(F)F)cc1)c1oc2ccccc2c1NC(=O)c1c(F)cccc1F	-0.8%
O=c1[nH]ncc(N/N=C\c2cccnc2)c1Br	-9.4%
Cc1ccc2nc(N(CCCn3ccnc3)C(=O)c3ccco3)sc2c1	0.48µg/mL*
CCOc1ccc(-n2cc(-c3ccc4c(c3)OCO4)[nH]c2=O)cc1	47.6%
O=C(c1ccco1)N1CCN=C1SCc1cccc(C(F)(F)F)c1	-9.3%
CC(=O)Nc1ccc(S(=O)(=O)Nc2ccc(O)c3ccccc23)cc1	-12.1%
CN(C)S(=O)(=O)c1ccc(C(=O)Nc2nc3c(cc4c5c(cccc53)CC4)s2)cc1	9.9%
COc1cccc(/C=N/NC(=O)c2[nH]nc3c2CCc2ccccc2-3)c1	?
COc1cccc(NC(=S)Nc2c(C)n(C)n(-c3ccccc3)c2=O)c1	-7.3%
CN(C(=O)C12CC3CC(CC(C3)C1)C2)c1nnc(C23CC4CC(CC(C4)C2)C3)s1	3.5%
